Screening data from PubChem BioAssay.
Yeast UUG start = alters start codon recognition fidelity in yeast | activity score, % at 18.7 µM | S. cerevisiae UUG-firefly luciferase reporter, luminescence/redox ratio | AID 602363 | 0.13% of 350,000 active;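 active = replicate mean at a twofold rise or more, about +100% in these data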;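 note: firefly luciferase made from a UUG start codon reports start codon fidelity; reporter light over untreated wells divided by growth signal over untreated wells; some hits fall short of that in this replicate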
Active calls of the source: *.

SMILES	Yeast UUG start
CS(=O)(=O)N1CCCCN2[C@H](CO)[C@@H](c3ccc(C4=CCCC4)cc3)[C@H]2C1	-6
O=C(C[C@H]1CC[C@@H]2[C@H](COC[C@H](O)CN2Cc2nccs2)O1)NCc1ccc(-c2ccccc2)cc1	14
C[C@H](CO)N1C[C@H](C)[C@H](CN(C)S(=O)(=O)c2cn(C)cn2)Oc2ncc(C#CC(C)(C)O)cc2C1=O	36
O=C(Nc1ccccc1F)N1C[C@@H]2[C@H](c3ccccc31)[C@H](CO)N2C(=O)c1ccc(F)cc1	-1
O=C(c1ccc(F)cc1)N1[C@H](CO)[C@H]2c3ccccc3NC[C@H]21	8
C[C@H]1CN([C@@H](C)CO)C(=O)CCCn2cc(nn2)CO[C@H]1CN(C)Cc1cccc(C(=O)O)c1	-12
COc1ccc(CN(C)C[C@H]2Oc3ccc(NC(=O)Nc4c(C)noc4C)cc3CC(=O)N([C@@H](C)CO)C[C@@H]2C)cc1	-3
Cc1noc(C)c1NC(=O)Nc1ccc2c(c1)C(=O)N([C@H](C)CO)C[C@@H](C)[C@@H](CN(C)C)O2	19
CCCNC(=O)N1C[C@H]2[C@@H](c3ccccc31)[C@H](CO)N2C(=O)c1ccncc1	-7
C[C@@H]1CN([C@@H](C)CO)C(=O)c2cccc(NC(=O)Nc3ccc(C(F)(F)F)cc3)c2O[C@@H]1CN(C)Cc1ccc(-c2ccccc2)cc1	-14
CCCNC(=O)N1[C@@H](CO)[C@H](c2ccccc2)[C@@H]1CNC(=O)c1ccccc1	6
C[C@@H]1CN([C@@H](C)CO)C(=O)c2cc(NC(=O)CCC(F)(F)F)ccc2O[C@H]1CN(C)S(=O)(=O)c1ccccc1	8
O=C(c1ccccc1F)N1CC[C@@H]2[C@H]1c1cc(C#Cc3ccccc3)ccc1N[C@@H]2CO	-17
C[C@@H](O)C#Cc1ccc([C@H]2[C@H]3CN(S(=O)(=O)Cc4ccccc4)CCCCN3[C@H]2CO)cc1	6
COc1ccc(S(=O)(=O)N(C)C[C@H]2Oc3ccc(NC(=O)CCN4CCOCC4)cc3C(=O)N([C@H](C)CO)C[C@@H]2C)cc1	5
CCCC#Cc1ccc([C@@H]2[C@H](CO)N3CCCCN(Cc4cncnc4)C[C@@H]23)cc1	-1
CC(C)C#Cc1ccc([C@H]2[C@H](CO)N3CCCCN(S(=O)(=O)Cc4ccccc4)C[C@@H]23)cc1	5
C[C@@H]1CN([C@@H](C)CO)C(=O)c2cccc(NS(=O)(=O)c3cccs3)c2O[C@@H]1CN(C)Cc1ccc2c(c1)OCO2	-1
C[C@@H]1CN([C@@H](C)CO)C(=O)c2cc(NC(=O)CCN3CCOCC3)ccc2O[C@H]1CN(C)S(=O)(=O)c1ccccc1	-1
Cc1ccccc1-c1ccc([C@H]2[C@H]3CN(C(=O)Nc4cccc(F)c4)CCCCN3[C@H]2CO)cc1	47
CO[C@@H]1CN(C)C(=O)c2cc(NS(=O)(=O)CC(F)(F)F)ccc2OC[C@H](C)N(C(=O)c2ccc3c(c2)OCO3)C[C@@H]1C	8
CN(C)C(=O)c1ccc(-c2ccc3c(c2)[C@@H]2[C@@H](CCN2C(=O)c2ccc4c(c2)OCO4)[C@@H](CO)N3)cc1	-8
CCN(C[C@@H]1N[C@@H](CO)[C@H]1c1ccc(C2=CCCC2)cc1)C(=O)c1ccncc1	-11
CCC(=O)N1[C@H](CN(C)C(C)=O)[C@@H](c2ccc(-c3ccccc3)cc2)[C@@H]1CO	-10
CCCC(=O)Nc1ccc2c(c1)C(=O)N(C)[C@H]1CC[C@H](CC(=O)Nc3cn(C)nc3C)O[C@H]1CO2	-6
O=C(NC1CCC1)[C@@H]1[C@@H](CO)[C@@H]2Cn3c(ccc(-c4ccccc4)c3=O)[C@H]1N2CC1CC1	7
O=C(Nc1ccc(F)cc1)N1CCCCN2[C@H](CO)[C@@H](c3ccc(C#Cc4ccccc4)cc3)[C@H]2C1	32
Cc1cc(C(=O)Nc2cccc3c2O[C@@H](CN(C)Cc2ccc(C(=O)O)cc2)[C@@H](C)CN([C@@H](C)CO)C3=O)n(C)n1	-7
CCCNC(=O)C[C@@H]1CC[C@H]2[C@@H](COC[C@H](O)CN2C(=O)Nc2ccc3c(c2)OCO3)O1	-12
C[C@H](CO)N1C[C@H](C)[C@@H](CN(C)Cc2ccc(C(F)(F)F)cc2)Oc2c(NC(=O)c3nc4ccccc4s3)cccc2C1=O	-3
COc1ccccc1NC(=O)N1CC[C@@H]2[C@H]1c1cc(-c3cccc(F)c3)ccc1N(C)[C@H]2CO	9
O=S(=O)(c1ccccc1F)N1CC[C@@H]2[C@H]1c1cc(-c3ccccc3)ccc1N[C@@H]2CO	4
CCN(C[C@@H]1N[C@H](CO)[C@@H]1c1ccccc1)C(=O)c1ccccc1	-1
C[C@@H]1CN([C@@H](C)CO)C(=O)c2ccccc2-c2ccccc2CO[C@H]1CN(C)S(=O)(=O)c1ccc(F)cc1	11
CO[C@@H]1CN(C)C(=O)c2cc(NC(=O)C3CC3)ccc2OC[C@H](C)N(C)C[C@H]1C	-5
Cc1ccc(S(=O)(=O)N(C)C[C@@H]2Oc3ccc(NC(=O)Nc4ccccc4)cc3C(=O)N([C@H](C)CO)C[C@H]2C)cc1	14
O=C(C[C@H]1CC[C@H]2[C@@H](COC[C@H](O)CN2S(=O)(=O)c2cccc(Cl)c2)O1)Nc1ccccc1	-1
C/C=C/c1ccc([C@@H]2[C@@H](CO)N3CCCCN(C(=O)Nc4ccc(OC)cc4)C[C@@H]23)cc1	11
COCC(=O)N1CC[C@@H]2[C@H]1c1cc(-c3ccc(F)cc3)ccc1N(C)[C@@H]2CO	-1
O=C(Nc1cccc(F)c1)N1CCCCN2[C@H](C1)[C@@H](c1ccc(C#CC3CC3)cc1)[C@@H]2CO	10
CC(=O)N1[C@H](CO)[C@H]2c3ccccc3N(C(=O)c3ccccc3)C[C@H]21	-15
CCCNC(=O)C[C@@H]1C[C@@H]2c3cc(NS(=O)(=O)c4cccc(OC)c4)ccc3O[C@@H]2[C@H](CO)O1	-17
CN(C)C(=O)c1cccc(-c2ccc3c(c2)[C@H]2[C@H](CCN2S(=O)(=O)c2ccccc2)[C@@H](CO)N3)c1	-2
O=C(c1cccnc1)N1C[C@@H]2[C@H](c3ccccc31)[C@H](CO)N2C(=O)C1CCOCC1	14
CCC(=O)N1C[C@@H](C)[C@H](OC)CN(C)C(=O)c2cc(NC(=O)NC(C)C)ccc2OC[C@H]1C	1
C[C@H]1CN([C@@H](C)CO)C(=O)c2cccc(NC(=O)NC3CCCCC3)c2O[C@H]1CN(C)Cc1ccc(-c2ccccc2)cc1	7
Cc1ccc(S(=O)(=O)N(C)C[C@H]2Oc3ccc(NC(=O)Nc4ccc(C(F)(F)F)cc4)cc3C(=O)N([C@H](C)CO)C[C@H]2C)cc1	-16
CCS(=O)(=O)Nc1ccc2c(c1)C(=O)N(C)[C@H]1CC[C@@H](CC(=O)NCc3ccc(OC)cc3)O[C@H]1CO2	1
N#Cc1cccc(-c2ccc3c(c2)[C@H]2[C@H](CCN2S(=O)(=O)c2ccc(F)cc2)[C@@H](CO)N3)c1	-15
OC[C@@H]1[C@@H](c2ccc(C#Cc3ccccc3)cc2)[C@H]2CN(Cc3cncnc3)CCCCN12	17
OC[C@H]1[C@@H](c2ccc(C#Cc3ccccc3F)cc2)[C@@H]2CN(Cc3cncnc3)CCCCN12	-6
C[C@H]1CN([C@@H](C)CO)C(=O)c2cccc(NC(=O)Nc3ccc4c(c3)OCO4)c2O[C@H]1CN(C)S(=O)(=O)c1cn(C)cn1	24
C[C@@H]1CN([C@H](C)CO)C(=O)c2cccc(NS(=O)(=O)c3ccc(F)cc3)c2O[C@@H]1CN(C)Cc1ccc2c(c1)OCO2	4
C[C@@H]1CN([C@H](C)CO)C(=O)c2cc(NS(=O)(=O)c3cn(C)cn3)ccc2O[C@H]1CN(C)S(C)(=O)=O	-11
C[C@H](CO)N1C[C@H](C)[C@@H](CN(C)Cc2ccc3c(c2)OCO3)Oc2c(NC(=O)Nc3ccccc3)cccc2C1=O	2
COc1ccc(CNC(=O)C[C@@H]2C[C@@H]3c4cc(NS(=O)(=O)c5ccc(F)cc5)ccc4O[C@@H]3[C@@H](CO)O2)cc1	46
COc1ccc(NC(=O)N(C)C[C@@H]2OCc3ccccc3-c3ccccc3C(=O)N([C@H](C)CO)C[C@H]2C)cc1	15
O=C(NC[C@H]1N[C@H](CO)[C@@H]1c1ccccc1)C1CC1	1
O=C(CC(F)(F)F)N1C[C@@H]2[C@H](c3ccccc31)[C@H](CO)N2Cc1cccnc1	-4
COc1ccc(NC(=O)Nc2ccc3c(c2)CC(=O)N([C@H](C)CO)C[C@@H](C)[C@H](CN(C)Cc2ccncc2)O3)cc1	-4

2 entries picked at random from those above:
SMILES	Yeast UUG start
CN(C)C(=O)c1cccc(-c2ccc3c(c2)[C@H]2[C@H](CCN2S(=O)(=O)c2ccccc2)[C@@H](CO)N3)c1	-2
COc1ccc(NC(=O)Nc2ccc3c(c2)CC(=O)N([C@H](C)CO)C[C@@H](C)[C@H](CN(C)Cc2ccncc2)O3)cc1	-4

Later entries.
SMILES	Yeast UUG start
O=C(C[C@@H]1CC[C@@H]2[C@H](COC[C@H](O)CN2Cc2ccc(F)cc2)O1)NCc1ccccc1Cl	-5
CO[C@H]1CN(C)C(=O)c2cc(NC(=O)C3CCC3)ccc2OC[C@@H](C)N(Cc2nccs2)C[C@@H]1C	2
O=S(=O)(c1ccc(F)cc1)N1CCCCN2[C@H](C1)[C@H](c1ccc(-c3ccccc3F)cc1)[C@@H]2CO	3
COc1ccc(NC(=O)N(C)C[C@H]2OCc3cnnn3CCCC(=O)N([C@H](C)CO)C[C@H]2C)c(OC)c1	15
Cc1ccc(-c2ccc([C@H]3[C@H](CO)N4CCCCN(C(=O)Nc5cccc(F)c5)C[C@@H]34)cc2)cc1	-5
CCCC#Cc1ccc([C@H]2[C@H](CO)N3CCCCN(S(=O)(=O)CC)C[C@@H]23)cc1	2
CN1c2ccc(-c3ccccc3)cc2[C@@H]2[C@@H](CCN2C(=O)c2cccc(F)c2)[C@@H]1CO	-17
CC(C)NC(=O)Nc1cccc2c1O[C@H](CN(C)S(=O)(=O)c1ccc(Cl)cc1)[C@H](C)CN([C@H](C)CO)C2=O	5
CCC(=O)N(CC1CCC1)C[C@@H]1[C@@H](c2ccccc2)[C@H](CO)N1C(C)=O	-3
O=C(Cc1ccccn1)N1[C@@H](CO)[C@@H]2c3ccccc3NC[C@@H]21	-2
COc1cccc(S(=O)(=O)Nc2ccc3c(c2)C(=O)N(C)C[C@@H](OC)[C@H](C)CN(C(=O)Cc2cccnc2)[C@H](C)CO3)c1	-5
CCCC#Cc1ccc([C@H]2[C@@H](CO)N3CCCCN(S(=O)(=O)c4ccccc4F)C[C@H]23)cc1	29
COCCNC(=O)C[C@H]1C[C@@H]2c3cc(NC(=O)Nc4ccccc4)ccc3O[C@@H]2[C@@H](CO)O1	9
CN1c2ccc(C#Cc3cccnc3)cc2[C@H]2[C@H](CCN2C(=O)C2CCCCC2)[C@H]1CO	-3
CNC(=O)C[C@@H]1CC[C@H]2[C@@H](COC[C@H](O)CN2C(=O)Nc2ccc(Cl)c(Cl)c2)O1	3
CO[C@H]1CN(C)C(=O)c2ccc(NC(=O)Nc3ccccc3F)cc2OC[C@H](C)N(C)C[C@H]1C	11
COc1ccc(-c2ccc3c(c2)[C@@H]2[C@@H](CCN2C(=O)Cc2ccccn2)[C@H](CO)N3C)cc1	-8
O=C(C[C@@H]1CC[C@@H]2[C@H](COC[C@@H](O)CN2C(=O)c2ccc(F)cc2)O1)NCCCN1CCOCC1	7
CC(C)C#Cc1ccc([C@@H]2[C@H](CO)N3CCCCN(CC4CC4)C[C@@H]23)cc1	10
C[C@H](CO)N1C[C@H](C)[C@H](CN(C)CC2CC2)OCc2cnnn2CCCC1=O	11

Of the compounds above, these have a Cl atom:
SMILES	Yeast UUG start
O=C(C[C@H]1CC[C@H]2[C@@H](COC[C@H](O)CN2S(=O)(=O)c2cccc(Cl)c2)O1)Nc1ccccc1	-1
O=C(C[C@@H]1CC[C@@H]2[C@H](COC[C@H](O)CN2Cc2ccc(F)cc2)O1)NCc1ccccc1Cl	-5
CC(C)NC(=O)Nc1cccc2c1O[C@H](CN(C)S(=O)(=O)c1ccc(Cl)cc1)[C@H](C)CN([C@H](C)CO)C2=O	5
CNC(=O)C[C@@H]1CC[C@H]2[C@@H](COC[C@H](O)CN2C(=O)Nc2ccc(Cl)c(Cl)c2)O1	3

Returning to the listing; the 3 compounds before the break are reprinted first.
SMILES	Yeast UUG start
O=C(C[C@@H]1CC[C@@H]2[C@H](COC[C@@H](O)CN2C(=O)c2ccc(F)cc2)O1)NCCCN1CCOCC1	7
CC(C)C#Cc1ccc([C@@H]2[C@H](CO)N3CCCCN(CC4CC4)C[C@@H]23)cc1	10
C[C@H](CO)N1C[C@H](C)[C@H](CN(C)CC2CC2)OCc2cnnn2CCCC1=O	11
COCCNC(=O)C[C@H]1CC[C@H]2[C@@H](COc3ccc(NC(=O)Nc4cccc(F)c4)cc3C(=O)N2C)O1	-5
CO[C@@H]1CN(C)C(=O)c2cc(NC(C)=O)ccc2OC[C@H](C)N(C(=O)C2CCOCC2)C[C@H]1C	-4
COc1cccc(S(=O)(=O)N2CCCCN3[C@H](CO)[C@@H](c4ccc(-c5ccccc5)cc4)[C@@H]3C2)c1	-6
CCC(=O)Nc1ccc2c(c1)OC[C@H](C)N(C(=O)Cc1cccnc1)C[C@@H](C)[C@@H](OC)CN(C)C2=O	8
O=C(C[C@@H]1CC[C@@H]2[C@H](COC[C@@H](O)CN2C(=O)Nc2ccc(Cl)cc2)O1)N1CCCCC1	-1
C[C@@H]1CN([C@@H](C)CO)C(=O)c2cc(NS(C)(=O)=O)ccc2O[C@H]1CN(C)S(=O)(=O)c1cn(C)cn1	-11
C[C@H](CO)N1C[C@H](C)[C@H](CN(C)S(=O)(=O)c2ccc(F)cc2)OCc2ccccc2-c2c(n(C)c3ccccc23)C1=O	6
COc1ccccc1CN(C)C[C@@H]1OCc2cn(nn2)CCCC(=O)N([C@H](C)CO)C[C@H]1C	-2

Not all compounds are listed; rates above refer to the full screens.
